Source: PubChem (National Center for Advancing Translational Sciences (NCATS))
Sfp PPTase inh: inhibitors of Bacillus subtilis Sfp phosphopantetheinyl transferase | Q9F4F7 | Biochemical Sfp PPTase activity, qHTS | Potency, µM, for the others: max response, negative = inhibition, actives largely listed as inhibitors | 310,000 tested, 3.5% active; active = well fitted inhibition curve with a large enough effect; inconclusive = small, poorly fitted or top-dose-only effect, or another doubt; inactive = no such curve, though single readings can be large or run the other way;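 also: the enzyme is Sfp with the accession as filed and its product quenches rhodamine fluorescence; potency is read from the fitted curve at half-maximal effect; 0% = enzyme reaction without inhibitor and -100% = no enzyme wells; top concentration of the series not given in the record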
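Reaction rates are the 30-min fluorescence difference (ex 525, em 598 nm) in wells containing 15 nM Sfp, 5 uM rhodamine-CoA and 12.5 uM BHQ-2-YbbR at pH 7.6 with 10 mM MgCl2.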
ClpP mod: qHTS Assay for Activators of ClpP | ATP-dependent Clp protease proteolytic subunit (Bacillus subtilis (strain 168)), P80244 | purified B. subtilis ClpP, FRET peptide cleavage, 20 min | Potency, µM (series often up to 57.5 µM), for inactives: at the top dose activity change, negative = active | 340,000 tested, 1.9% active; active = well fitted falling curve with a large enough effect; inconclusive = small, poorly fitted or top-dose-only effect; inactive = no such curve, though single readings can be large or run the other way; also: potency is read from the fitted curve at half-maximal effect; the source files actives as falling curves though it sought activators and does not explain the sign; nearly all actives have a fitted effect of over 65% in size; many hits overshoot -100%
Target sequence (P80244 whole entry, looked up): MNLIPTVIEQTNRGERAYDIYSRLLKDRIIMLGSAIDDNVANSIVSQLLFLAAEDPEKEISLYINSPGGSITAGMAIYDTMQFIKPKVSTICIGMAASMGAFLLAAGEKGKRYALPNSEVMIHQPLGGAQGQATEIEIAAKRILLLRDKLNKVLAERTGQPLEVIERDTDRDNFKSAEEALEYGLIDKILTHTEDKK
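ClpP 10 microg/mL final, pH 8 Tris/KCl buffer with BSA, glycerol, Tween-20; compound pinned in; FRET-FV substrate; RT 20 min; Ex320/Em430; ΔFRET vs ADEP 5.8 microM, DMSO, no enzyme.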
Menin MLL FP FL: menin-MLL binding inhibition, fluorescein peptide | Fluorescence polarization, fluorescein-MLL peptide displacement from menin | FP activity change, % at 61.4 µM | 290,000 tested, under 10 active; inconclusive = falling polarisation curve, or a change in total fluorescence; inactive = total fluorescence flat and polarisation flat or rising; no compound was filed as active; the % refers to the polarisation; negative = inhibition;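 also: % of control where 0% means no effect; inhibitors lower the polarisation; unlabelled MLL peptide was the positive control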
gsp antag: gsp mutant antagonism; 340,000 tested, 0.4% active; Potency, µM (doses to about 76.9 µM), inactives show at the highest dose activity change, negative = inhibition, actives largely listed as inhibitors; gsp-mutant cells, cAMP HTRF, 30 min; control for the full effect not named in the record; active = falling curve of any shape with a large fitted effect; inconclusive = falling curve, mostly with a smaller effect; inactive = flat or rising curve; cell line not stated here;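 also: intracellular cAMP measured with PDE inhibitor Ro 20-1724 present during compound exposure; potency is read from the fitted curve at half-maximal effect; % is scaled to controls: 0 for no effect and ±100 for the full control effect; nearly all actives have a fitted effect of over 65% in size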
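G418-selected cells were plated in DMEM/10% FBS for 16-24 h at 37C, then treated with compounds plus the PDE inhibitor […] (300 uM solution added) for 30 min at 37C. Intracellular cAMP was measured by HTRF after 30 min lysis at room temperature.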
gsp ag: agonists of gsp mutant (McCune-Albright syndrome); gsp mutant cells, cAMP HTRF, 30 min; control for the full effect not named in the record; Potency, µM (titrated, usually from 76.9 µM), for the others: top-dose activation (cAMP increase), most hits filed as activators; 340,000 tested, 0.13% active; AID 624287; active = well fitted activation curve with a large enough effect; inconclusive = small, poorly fitted or top-dose-only effect, or another doubt; inactive = no such curve, though single readings can be large or run the other way; cell line not stated here;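 also: phosphodiesterase inhibitor Ro 20-1724 added with compounds to block cAMP breakdown; potency is read from the fitted curve at half-maximal effect; nearly all actives have a fitted effect of over 60% in size; about a fifth of the inactives were tested at one dose only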
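Cells stably selected in G418 were plated at 2000/well, grown 16-24 hr, then given compounds in DMSO with the PDE inhibitor […] (300 uM solution added) for 30 min at 37C; cAMP was read by HTRF.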
TRPML1 inh: human mucolipin-1 channel inhibition | Q9GZU1 | TRPML1-inducible cells, Ca2+ dye fluorescence, FDSS; hits give low values; inhibition of EC80 agonist-evoked calcium signal | activity change, negative = inhibition, % (concentration not given with the values) | 390,000 tested, 0.02% active; in the data active means activity change below about -50%; inconclusive means about -30% to -50%; inactive means above about -30%;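 also: stimulus is agonist 54-4 at its EC80 concentration; % is scaled to controls: 0 for no effect and ±100 for the full control effect; compound concentration not given in the record; the text of the record puts the active cut at -80%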
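TRPML1-DL cells, Tet-induced overnight (~16 h, 37 °C) at 1,500 cells/well, were loaded with Ca8 no-wash dye plus quencher for 45-90 min at room temperature. Compounds were pinned during FDSS kinetic reading; agonist 54-4 at EC80 (4 uM final) then added.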
TRPV1 potentiator: enhances activation of the human vanilloid receptor TRPV1 | Q8NER1 | TRPV1-expressing cells, Fluo-8 calcium influx, capsaicin EC20 potentiation; host cell line not named in the record; control for the full effect not named in the record | potentiation, % at 8.33 µM | 320,000 tested, 0.02% active; active means potentiation above 80%; inconclusive means 30% to 80%; inactive means below 30%; also: 0% is about no effect
Target sequence (Q8NER1 whole entry, looked up): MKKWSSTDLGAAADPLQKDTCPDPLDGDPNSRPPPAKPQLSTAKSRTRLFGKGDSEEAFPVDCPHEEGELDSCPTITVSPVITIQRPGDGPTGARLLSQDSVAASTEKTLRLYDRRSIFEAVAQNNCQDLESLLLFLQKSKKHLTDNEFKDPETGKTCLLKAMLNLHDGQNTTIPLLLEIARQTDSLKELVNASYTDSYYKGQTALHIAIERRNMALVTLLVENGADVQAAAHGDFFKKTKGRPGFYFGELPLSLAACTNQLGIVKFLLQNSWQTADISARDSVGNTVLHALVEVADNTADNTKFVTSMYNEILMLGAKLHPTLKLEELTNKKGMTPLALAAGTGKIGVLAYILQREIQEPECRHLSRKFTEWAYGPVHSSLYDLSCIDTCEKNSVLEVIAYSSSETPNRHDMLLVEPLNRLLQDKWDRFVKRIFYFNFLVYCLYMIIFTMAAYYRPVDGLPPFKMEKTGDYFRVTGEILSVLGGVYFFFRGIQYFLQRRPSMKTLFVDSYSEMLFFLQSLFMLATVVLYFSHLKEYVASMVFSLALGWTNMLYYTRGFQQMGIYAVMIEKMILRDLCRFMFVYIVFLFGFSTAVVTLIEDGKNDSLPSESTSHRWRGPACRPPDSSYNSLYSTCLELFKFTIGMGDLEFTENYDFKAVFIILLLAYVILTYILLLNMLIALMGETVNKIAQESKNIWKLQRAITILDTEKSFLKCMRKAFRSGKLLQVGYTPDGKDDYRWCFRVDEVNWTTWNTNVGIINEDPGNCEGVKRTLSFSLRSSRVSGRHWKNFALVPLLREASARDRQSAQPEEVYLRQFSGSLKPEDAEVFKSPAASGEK
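TRPV1-expressing cells were cultured overnight at 35.5C and loaded with Fluo-8 calcium dye for 40 to 90 min at room temperature. After a 10 s baseline, compound was added and calcium influx was read kinetically for 3 min (ex 480/em 520 nm).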
* hit, by the source's call; ? = inconclusive; . = no result given; [ ] = dose if it differs, or a comment.

Structure	gsp antag	Sfp PPTase inh	ClpP mod	TRPV1 potentiator	Menin MLL FP FL	gsp ag	TRPML1 inh
COc1ccc(C(=O)/C=C(\C)Nc2ccc3c(c2)OCO3)cc1	-10.6%	-29.6%	-7.1%	25.5	9.2	7.6%	-2.2
Nc1ccn([C@@H]2O[C@H](CNC(=O)[C@@H](Cc3cn(COCc4ccccc4)cn3)NC=O)[C@@H](O)[C@H]2O)c(=O)n1	.	.	0.2%	.	.	-9.0%	-6.3
COC(=O)c1ccc(NC(=O)Cn2cnc3c(nnn3-c3cccc(OC)c3)c2=O)cc1	-3.9%	-16.8%	-5.3%	4.5	-4.5	23.2%	4.4
O=C1COc2ccc(C(=O)NC3CC3)cc2N1	4.5%	17.5%	?	11.6	1.1	-0.5%[15.4 µM]	14.9
CCN(CC)S(=O)(=O)c1cccc(C(=O)N2CC(O)CC2C(=O)O)c1 (stereo not drawn)	1.6%	-13.3%	1.0%	?	1.0	-1.7%	-23.6
COc1cccc2cc(C(=O)NCc3ccco3)c(=O)oc12	7.2%	-27.0%	-5.1%	0.2	-5.3	0.0%	-15.2
Cc1cc(Nc2ccc(C(=O)O)cc2)nc(N)n1	7.4%	7.1%	?	-8.4	-2.6	1.9%[15.4 µM]	-23.3
COc1ccc(NS(=O)(=O)c2cc(C(=O)N3CCCCCC3)ccc2C)cc1	-27.7%	.	-0.1%	.	.	-8.1%	-3.7
COc1ccccc1-n1cc(-c2ccc(C)cc2)[nH]c1=S	11.5%	-6.4%	?	9.0	-10.4	15.2%[15.4 µM]	-7.0
COc1ccc(NC(=O)C2CCCN(C(=O)NC3CCCCC3)C2)cc1OC (stereo not drawn)	-4.2%	-12.9%	-1.7%	-1.9	-0.9	-40.1%[inhibitor]	13.1
CCN1C(=O)[C@H]2[C@H]3CN=C(SCc4ccc(C)cc4)N3[C@@](CC)(C(=O)OC)[C@H]2C1=O	4.4%	.	-4.1%	.	.	.	-2.1
CC(=NNC(=O)c1cc(C)oc1C)c1ccc(Br)s1	-7.9%	.	3.1%	.	.	8.1%	-15.7
CN1CCCC(OC(=O)c2cc(Cl)ccc2Cl)C1 (stereo not drawn)	3.7%	2.4%	4.3%	-8.6	3.9	18.7%	-0.7
COc1ccc(C(=O)NCC(=O)N/N=C/c2ccc([N+](=O)[O-])s2)cc1OC	4.1%	-13.0%	0.3%	-37.0	0.9	-71.1%[inhibitor]	-22.2
COCCOc1cc(NCc2ccccc2)c2ncn(C(C)C)c2c1	-0.1%	.	-4.1%	.	.	.	12.9
CCCCn1nnnc1SCC(=O)NNC(=O)C1CCCCC1	4.1%	13.5%	0.8%	16.8	1.7	8.7%	-15.8
C#CCOc1ccc(/C=N/O)cc1Cl	13.1%	7.0%	-2.4%	2.0	8.0	-13.2%	16.0
Cc1cc(-c2nc(C)c(C(=O)NN)s2)no1	-2.1%	6.7%	?	.	-0.7	-0.4%[15.4 µM]	29.3
Cn1c(SCC(=O)NNC(=O)c2ccccc2)nnc1C(F)(F)F	15.9%	.	1.5%	0.1	.	10.0%	-1.9
COc1ccccc1NC(=O)C(C)OC(=O)CCCOc1ccccc1 (stereo not drawn)	7.4%	.	-2.5%	-15.7	.	6.2%	10.3

Further structures follow:
Structure	gsp antag	Sfp PPTase inh	ClpP mod	TRPV1 potentiator	Menin MLL FP FL	gsp ag	TRPML1 inh
COc1ccc(/C=N/NC(=O)C(=O)N2CCCCCC2)cc1[N+](=O)[O-]	24.8%	9.5%	.	2.4	.	-7.5%	-4.9
CN(CC(=O)Nc1cccc(F)c1)CC(=O)Nc1ccccc1[N+](=O)[O-]	-26.7%	8.9%	-0.6%	12.9	0.1	-0.3%[15.4 µM]	-10.1
O=C(COC(=O)c1cccc(OC(F)F)c1)Nc1cccc(S(=O)(=O)N2CCCC2)c1	-0.7%	.	-1.7%	.	.	21.4%	-20.0
O=C(c1ccc(Cl)cc1)N1CCC(C(=O)N2CCCc3ccccc32)CC1	6.8%	9.9%	31.6µM*	14.0	.	?	5.6
C=C(NC(C)=O)c1c(F)cccc1F	3.9%	.	0.2%	-11.2	.	5.2%	-8.7
COc1ccc(C(=S)N2CCCC2)cc1C	6.1%	-6.9%	-0.4%	-0.7	-0.6	?	-2.1
CCC(=O)Nc1ccc(C(=O)CN2C(=O)NC3(CCOc4ccccc43)C2=O)cc1 (stereo not drawn)	7.2%	.	-1.9%	-5.3	.	20.4%	-6.3
Cc1ccc2cccc(S(=O)(=O)NC3CCS(=O)(=O)C3)c2n1 (stereo not drawn)	-0.5%	-0.9%	2.6%	1.0	-0.7	9.7%	24.3
N#CCOC(=O)C1CSC2(c3ccc(Br)cc3)CCC(=O)N12 (stereo not drawn)	15.4%	20.1%	1.6%	-13.6	-0.3	-5.1%	-8.3
COc1ccc(CC(=O)O/N=C(\N)Cc2ccc(OC)cc2)cc1	9.3%	18.2%	1.2%	0.7	-2.2	-7.6%	7.8
CN(C(=O)CN1C(=O)c2cccc(N)c2C1=O)C1CCCCC1	?	.	-1.4%	13.2	.	-1.2%	0.2
Cc1ccc2cc(CCNS(=O)(=O)c3ccc(Br)cc3)c(=O)[nH]c2c1C	-6.8%	-1.2%	-3.7%	-11.7	0.3	4.9%[15.4 µM]	5.7
Cc1ccc(C2CC(c3cccc(Br)c3)Nc3nnnn32)cc1 (stereo not drawn)	-9.0%	-5.8%	0.3%	12.3	-1.0	-34.4%[inhibitor]	-11.4
CC1CCCC(C)N1C(=O)CSc1nnc(NC(=O)c2cccs2)s1 (stereo not drawn)	-38.0%	8.2%	2.2%	6.2	1.8	14.5%	24.0
Cn1c(CNc2nc(-c3ccccc3)cs2)nnc1SCC(=O)c1ccccc1	-7.6%	3.7%	-2.2%	.	4.3	3.1%	9.0
COc1ccc(S(=O)(=O)Nc2c(C)n(C)n(-c3ccccc3)c2=O)cc1C(=O)O	-6.1%	6.9%	-0.1%	3.7	1.5	8.5%[15.4 µM]	-5.2
C/C=C/C(=O)Nc1nnc(C2CCCCC2)s1	6.1%	13.1%	1.6%	3.1	-0.9	-84.4%[inhibitor]	-2.2
CSc1sc(C(=O)N2CCc3ccccc32)cc1S(=O)(=O)C(C)C	5.5%	1.8%	31.6µM*	3.3	.	-4.8%[15.4 µM]	-1.8
CC(C)CC(NC(=O)OC(C)(C)C)C(=O)O (stereo not drawn)	10.8%	6.8%	-0.8%	10.1	-2.9	-18.7%	-23.5
O=C(CC(=O)N/N=C\c1ccc([N+](=O)[O-])cc1)NCCc1ccccc1	-15.3%	10.4%	-0.5%	-1.5	-5.6	12.6%[15.4 µM]	5.9

Single records, from the list above. Order of values: gsp antag | Sfp PPTase inh | ClpP mod | TRPV1 potentiator | Menin MLL FP FL | gsp ag | TRPML1 inh
Record of C/C=C/C(=O)Nc1nnc(C2CCCCC2)s1 → 6.1% | 13.1% | 1.6% | 3.1 | -0.9 | -84.4%[inhibitor] | -2.2
Record of N#CCOC(=O)C1CSC2(c3ccc(Br)cc3)CCC(=O)N12 (stereo not drawn) → 15.4% | 20.1% | 1.6% | -13.6 | -0.3 | -5.1% | -8.3

By substructure: the compounds so far with bromine.
Structure	gsp antag	Sfp PPTase inh	ClpP mod	TRPV1 potentiator	Menin MLL FP FL	gsp ag	TRPML1 inh
CC(=NNC(=O)c1cc(C)oc1C)c1ccc(Br)s1	-7.9%	.	3.1%	.	.	8.1%	-15.7
N#CCOC(=O)C1CSC2(c3ccc(Br)cc3)CCC(=O)N12 (stereo not drawn)	15.4%	20.1%	1.6%	-13.6	-0.3	-5.1%	-8.3
Cc1ccc2cc(CCNS(=O)(=O)c3ccc(Br)cc3)c(=O)[nH]c2c1C	-6.8%	-1.2%	-3.7%	-11.7	0.3	4.9%[15.4 µM]	5.7
Cc1ccc(C2CC(c3cccc(Br)c3)Nc3nnnn32)cc1 (stereo not drawn)	-9.0%	-5.8%	0.3%	12.3	-1.0	-34.4%[inhibitor]	-11.4

Further entries
Structure	gsp antag	Sfp PPTase inh	ClpP mod	TRPV1 potentiator	Menin MLL FP FL	gsp ag	TRPML1 inh
COc1ccc(OC(=O)c2cnc3n(c2=O)CCS3)cc1	-11.1%	5.8%	0.7%	2.3	2.6	-15.9%[15.4 µM]	10.2
COC(=O)c1ccc(OCC(=O)NC2CCCCCC2)cc1	-15.7%	18.7%	-1.6%	-10.5	.	2.0%	0.0
Cc1ccc(SCC(=O)NC(=O)c2ccc(S(=O)(=O)N(C)C)cc2)cc1C	-7.0%	2.0%	-2.7%	-0.3	-0.5	32.7%	10.9
Cc1ccnc(NS(=O)(=O)c2ccc(NC(=O)c3ccc4c(c3)OCCO4)cc2)n1	-15.9%	5.6%	-1.6%	4.3	-0.6	-12.5%	8.3
COc1ccc(C(c2nnnn2Cc2cccs2)N2CCC(C(N)=O)CC2)c(OC)c1 (stereo not drawn)	7.3%	8.3%	-1.3%	2.5	-0.7	-6.1%	-2.5
COc1ccccc1N1CCN(S(=O)(=O)c2ccc(F)cc2)CC1	8.0%	-4.6%	-2.0%	-16.2	5.0	-5.7%	-7.9
C=CCn1c(O)c(C=Nc2ccc(CN3CCCCC3)cc2)c(=O)[nH]c1=S	1.8%	0.6%	.	.	5.8	-3.1%[15.4 µM]	7.6
Nc1ccc(C(=O)OCc2csc(-c3ccccc3)n2)cc1[N+](=O)[O-]	3.8%	-11.7%	0.2%	14.3	3.1	-47.5%[inhibitor]	2.4
O=C(CSc1nnc2ccccn12)Nc1ccccc1C(=O)NC1CC1	10.3%	10.0%	-11.4%	6.3	2.4	-7.6%	-1.5
Cn1cc(CN2CCCC(CO)(Cc3ccccc3)C2)cn1 (stereo not drawn)	14.8%	6.6%	.	5.9	1.9	15.8%	-10.3
O=C(NNC(=S)Nc1cccc(Cl)c1)c1ccccc1OC(F)F	?	15.0%	8.2%	1.0	6.6	-7.8%	3.3
O=C(NNc1c(Cl)cccc1Cl)C1CCC1	6.0%	0.9%	-0.9%	7.4	-1.1	4.3%[15.4 µM]	-12.3
